Assay outcomes (PubChem)
Bead autofluor – counter-screen for toxin protease inhibitors: compound fluorescence; actives 3.1% (n = 360,000); fluorescence intensity (concentration not given with the values); AID 624483; compound autofluorescence counterscreen, microsphere flow cytometry; stronger effect = higher value;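 active = at least 3 SD above the mean of all compounds, about 16000 in these data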;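 note: 100 nL of 1 mM stock went into each well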
Mtb hypoxia inh – PubChem AID 1159583; M. tuberculosis hypoxia-regulated fluorescent reporter, fluorescence; fluorescence inhibition, % (no concentration beside the values); actives 0.1% (n = 300,000);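 active = 35 to 45% if threefold the growth effect, above 45% if 1.5-fold the growth effect; inactive = the rest, general growth blockers included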;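 note: wells of about 50 µL received 100 nL stock; 0% = vehicle wells and 100% = reference inhibitor wells; whole bacteria with a GFP reporter of the hypoxia response; strong numbers were not always called active; many hits fall short of the cut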
PrP 5UTR inh – inhibition of PrP 5' UTR reporter expression; cell-based PrP 5' UTR mRNA reporter, plate reader; inhibition, % (no concentration beside the values); actives 0.35% (n = 340,000); AID 488862, 2010;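 active = every replicate at 50% or more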;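 note: 0 = median of the neutral control wells; tested in H4 reporter cells; numbers are from one replicate; inactives centre near -14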
BJeLR lethal – MLPCN primary cell-based screen for lethality selective to Ras in HRASV12 cells. inhibition, % (concentration not given with the values). AID 1554, 2009. actives 0.17% (n = 300,000). BJeLR (HRASV12) viability, CellTiter-Glo ATP luminescence, 48 h; reference of the scale not given here;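 active = replicate mean above 50%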;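 note: 50 nL library stock added to about 25 µL; numbers are from one replicate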
Sa ugtP lethal – growth inhibition of ugtP-null S. aureus, primary screen, RN4220 ugtP deletion, OD600; 16 h; some inactives read as strong as hits; growth inhibition, % (test concentration not listed); AID 1259309, 2017; actives 0.54% (n = 330,000);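 active = z-score under -3 and OD600 up to 0.15 on both plates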;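 note: plate controls were untreated wells for no effect and antibiotic for full effect; wells of about 80 µL received 100 nL stock; the first replicate is given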
RN4220 kill – growth inhibition of S. aureus RN4220, primary screen, OD600 | 16 h | inhibition, % (no concentration beside the values) | actives 0.33% (n = 330,000);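 active = z-score of -3 or lower and OD600 up to 0.18 on both plates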;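 note: plate controls were untreated cells for no effect and reference antibiotic for full effect; stock transfer was 100 nL into about 80 µL; one replicate is shown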
Mtb hypoxia inh growth – second read-out of Mtb hypoxia inh, no call of its own (marks repeat the call); growth inhibition, %; measured here: M. tuberculosis growth (absorbance);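 0% = vehicle and 100% = reference antibiotic; read after six days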
* marks the source's active call; other numbers are inactive results; / = no result given.

SMILES	Bead autofluor	Mtb hypoxia inh	Mtb hypoxia inh growth	PrP 5UTR inh	BJeLR lethal	Sa ugtP lethal	RN4220 kill
CCc1nc2ccc(C(=O)N(C)CC(=O)Nc3cccc(F)c3)cc2nc1CC	3573	2	0	2	/	0	-0.5
Nn1c(SCc2c(F)cccc2F)nnc1-c1ccccn1	3589	-9	-10	-56	11	0	1.0
Cc1ccc2nc3[nH]c(=O)[nH]c(=O)c3c(N)c2c1	3240	14	11	12	/	6	6.0
C[C@]12CCC3C(CC[C@H]4CC(O)CC[C@]34C)C1CCC2=NNC(=O)c1ccncc1 (some centres not stated)	/	5	5	/	/	11	0.1
CC1=NC(C#N)=C(C#N)NC(C)(C)C1	4164	-5	8	-24	0	-14	-1.6
O=C(CSc1nnc2ccccn12)N1CCc2ccccc2C1	3115	3	3	-40	2	5	3.7
Cc1nc2ccccc2n1CC(O)COC1CCCCC1 (configuration not stated)	11544	5	7	-26	-3	-3	1.9
OC(CNCC1CCCO1)Cn1c2ccc(Br)cc2c2cc(Br)ccc21 (configuration not stated)	10794	/	/	-18	-2	-20	65
Cc1cc2c(cc1C)CSC(c1ccccc1OC(=O)C(C)(C)C)SC2	3679	/	/	2	-1	6	-0.5
COc1ccc(CN2CC(C)C(CC(=O)NCc3ccccc3)C2=O)cc1 (configuration not stated)	/	-2	9	/	/	0	1.0
Nc1ccc(C2CCCc3nonc32)c2nonc12 (configuration not stated)	4333	6	6	-12	0	-5	7.4
CN(C)C(=O)C#Cc1ccccc1	5855	-2	14	-19	-20	0	-0.4
COc1cccc(C(=O)Oc2ccc(/C=N/NC(=O)c3ccncc3)cc2OC)c1	3765	/	/	-17	-2	/	/
Cc1ccc(C(=O)NCC(=O)NCC(=O)OCC(=O)c2ccc([N+](=O)[O-])cc2)cc1	9217	-6	11	-17	5	-4	1.9
CN(C(=O)CCc1nc2ccccc2c(=O)[nH]1)C1CCS(=O)(=O)C1 (configuration not stated)	3045	9	0	-13	/	1	2.2
CC1CC(C)CN(S(=O)(=O)c2cccc(C(=O)OCCN3CCCC3=O)c2)C1 (configuration not stated)	2487	/	/	-70	-10	1	4.5
CCC(=O)Nc1nnc(-c2ccncc2)s1	10319	5	14	-15	/	5	3.3
Cc1ccc(S(=O)(=O)N2CCCCC2C(=O)N(C)c2ccccc2)cc1 (configuration not stated)	6462	/	/	-28	-7	5	3.6
O=C(CCNC(=O)c1ccccc1Cl)NCC(c1ccco1)N1CCCC1 (configuration not stated)	/	-5	0	-12	1	5	-0.9
CCOc1ccc(NC(=O)CN(C)CC(=O)Nc2cc(Cl)ccc2C#N)cc1OCC	3364	/	/	-6	-6	7	4.6
NC(=O)C1CCN(C(=O)CC2(CC(=O)O)CCCCC2)CC1	3377	-8	-7	-9	1	-7	-5.2
CCNCc1cc(OCC)c(OCC(=O)NCCc2ccccc2)cc1Cl	12396	4	6	-52	2	-6	1.4
O=C(CSc1cccc[n+]1[O-])NN(c1ccccc1)c1ccccc1	4386	1	7	-8	-3	0	1.0
CSc1ccc(NC(=O)CC(C)=O)cc1	22536*	6	4	-21	-4	0	-1.2
O=C(CNC(=O)c1ccc(S(=O)(=O)N2CCCCC2)cc1)NN=Cc1ccco1	/	12	-1	/	/	3	1.5
COc1ccc(CC(=O)Nc2ccccc2NC(=O)c2ccco2)cc1OC	3256	8	0	-17	2	4	2.8
CN(C)c1nc(N(C)C)n(Cc2c(Cl)cccc2Cl)n1	2618	7	1	-28	7	2	1.6
Cc1cccc2nc(=S)n(C(=O)c3ccco3)n12	15901	0	-7	-116	3	3	2.3
COc1cccc(COC(=O)C2CCN(S(=O)(=O)c3ccc(F)cc3)CC2)c1OC	5093	8	0	-26	/	7	-2.9
Cc1c(NS(=O)(=O)c2ccccc2)c(=O)n(-c2ccccc2)n1C	3689	14	8	-18	1	1	4.5
O=C(NN=Cc1cccc([N+](=O)[O-])c1)c1ccc(CN2CCOCC2)cc1	/	5	17	/	/	-1	-0.7
Cc1cccc(N2CCN(C(=O)CCN3C(=O)C4C5C=CC(C5)C4C3=O)CC2C)c1 (configuration not stated)	2098	-4	0	-13	-8	2	7.9
O=C(CSc1n[nH]c(=O)n1C1CC1)Nc1ccc(Cl)cc1Cl	4137	-3	12	6	/	0	3.2
CCOC(=O)C1=C(C)N=c2sc(=CC(=O)OC)c(=O)n2C1c1ccc(OC)cc1 (configuration not stated)	/	12	8	/	/	-3	-5.8
CCC(C)NC(=O)COc1ccccc1[N+](=O)[O-] (configuration not stated)	2137	-9	-18	-14	7	1	-3.2
COc1ccccc1-c1ccc(SCc2ccccc2)nn1	4296	-2	-6	-22	1	8	14

Four consecutive entries already listed, quoted:
SMILES	Bead autofluor	Mtb hypoxia inh	Mtb hypoxia inh growth	PrP 5UTR inh	BJeLR lethal	Sa ugtP lethal	RN4220 kill
CN(C)c1nc(N(C)C)n(Cc2c(Cl)cccc2Cl)n1	2618	7	1	-28	7	2	1.6
Cc1cccc2nc(=S)n(C(=O)c3ccco3)n12	15901	0	-7	-116	3	3	2.3
COc1cccc(COC(=O)C2CCN(S(=O)(=O)c3ccc(F)cc3)CC2)c1OC	5093	8	0	-26	/	7	-2.9
Cc1c(NS(=O)(=O)c2ccccc2)c(=O)n(-c2ccccc2)n1C	3689	14	8	-18	1	1	4.5

Additional compounds
SMILES	Bead autofluor	Mtb hypoxia inh	Mtb hypoxia inh growth	PrP 5UTR inh	BJeLR lethal	Sa ugtP lethal	RN4220 kill
O=S(=O)(NCCN1CCOCC1)c1cc(Cl)c(Cl)cc1Cl	3328	23	15	-8	-13	6	7.5
CC(NC(=O)C(=O)NCc1cccs1)c1ccccc1 (configuration not stated)	3461	3	-1	-11	1	6	3.1
CCC1(c2ccccc2)NC(=O)N(CC(=O)Nc2ccccc2C(=O)N2CCCCC2)C1=O (configuration not stated)	7088	3	-8	-13	-1	2	0.4
COC(=O)C1=C(C)N=c2sc(=Cc3ccoc3)c(=O)n2C1c1ccccc1 (configuration not stated)	/	-11	-4	/	/	-26	-5.4
Clc1ccc(-c2csc(N3CCSCC3)n2)cc1	2160	12	8	-63	1	15	-2.1
CN1C(=O)C2C[C@@]3(Br)c4ccccc4N(OOSc4ccccc4)C3N2C(=O)C1Cc1ccccc1 (some centres not stated)	/	5	9	/	/	13	10
C=CCc1c(C)nc2cc(-c3ccc(C)cc3)[nH]n2c1=O	3332	-1	6	-21	-12	17	3.2
Brc1ccc(CSc2ncnc3nc[nH]c23)cc1	6555	7	6	-28	9	12	3.3
CC(OC(=O)C1CC1C)C(=O)Nc1ncc(Cl)cc1Cl (configuration not stated)	/	5	3	-14	-5	-1	1.2
N#CC1=C(N)OC2=C(CCc3ccccc32)C1c1ccccc1 (configuration not stated)	2310	18	5	58*	33	15	-5.1
CC(C)(C)c1ccc(C(=O)c2c[nH]c(C(=O)NCc3cccnc3)c2)cc1	9456	-7	-8	-16	4	-14	-0.8
CC(=O)Nc1cccc(NC(C)=O)n1	4183	/	/	-8	-2	11	4.4
Cc1ccc(-c2cn(CCN)c(-c3ccc(Cl)nc3)n2)cc1	3043	11	15	-18	/	-14	2.0
CCN1CCN(c2cc(C)c3cc(NC(=O)c4cnccn4)ccc3n2)CC1	4650	-1	5	-7	7	4	3.9
COc1ccc(C(=O)NCc2ccc(C(=O)O)o2)cc1	4227	/	/	-14	-2	/	/
O=C(COC(=O)c1cc([N+](=O)[O-])ccc1N1CCOCC1)Nc1c(Cl)cccc1C(F)(F)F	5533	9	4	-3	-23	-6	5.0
CCOC(=O)CC(NC(=O)Cn1nnc(-c2ccccc2F)n1)c1ccccc1Cl (configuration not stated)	2568	-1	8	-2	-3	6	-0.8
C=CCN1C(=O)CSc2ccc(C(=O)NCc3ccc(F)cc3)cc21	5506	4	3	-9	0	11	2.7
CCCCCCC(=NNS(C)(=O)=O)c1ccccc1	/	/	/	/	/	4	5.1
CC(CO)NC(=O)c1ccc2c3n(nc2c1)-c1ccc(Cl)cc1CO3 (configuration not stated)	/	6	2	/	/	2	5.8
O=[N+]([O-])c1cccc(C=Nn2c(C3CCCCC3)n[nH]c2=S)c1	/	5	8	/	/	-10	5.9
COC(=O)[C@H](Cc1ccccc1)NC(=O)c1cc(COc2c(F)cccc2F)on1	3900	-4	0	-31	5	-7	-5.9
Cc1ccc(NC(=O)COC(=O)C2CCC2)cc1S(=O)(=O)N1CCCCC1	3984	1	-1	-26	-9	3	4.6
COC(=O)C1CCN(C(=O)COc2ccc(Cl)cc2)CC1	8871	0	2	-26	-24	2	-0.1

Three entries already listed, arranged by SMILES length, ascending:
SMILES	Bead autofluor	Mtb hypoxia inh	Mtb hypoxia inh growth	PrP 5UTR inh	BJeLR lethal	Sa ugtP lethal	RN4220 kill
NC(=O)C1CCN(C(=O)CC2(CC(=O)O)CCCCC2)CC1	3377	-8	-7	-9	1	-7	-5.2
CCOC(=O)CC(NC(=O)Cn1nnc(-c2ccccc2F)n1)c1ccccc1Cl (configuration not stated)	2568	-1	8	-2	-3	6	-0.8
CCOc1ccc(NC(=O)CN(C)CC(=O)Nc2cc(Cl)ccc2C#N)cc1OCC	3364	/	/	-6	-6	7	4.6

Continued:
SMILES	Bead autofluor	Mtb hypoxia inh	Mtb hypoxia inh growth	PrP 5UTR inh	BJeLR lethal	Sa ugtP lethal	RN4220 kill
Cc1ccc(C)c(CN2C(=O)C(C)Oc3ccc(C)cc32)c1 (configuration not stated)	10835	-7	-3	-22	4	5	-1.1
Cc1ccccc1NC(=O)C1CC(=O)N(c2ccccc2F)C1 (configuration not stated)	5218	/	/	-7	1	-4	-1.0
Cn1c(NC(=S)Nc2ccccc2)nc2ccccc21	1980	/	/	-86	-16	5	4.4
Cc1ccn(CC(=O)N/N=C/c2cc([N+](=O)[O-])ccc2O)n1	7181	/	/	-9	4	/	/
O=C(COC(=O)/C=C/c1ccc(OC(F)F)cc1)NCCN1C(=O)CSC1=O	3959	-2	8	-80	4	1	2.3
CC(C)(C)C1CCC(=NNc2ncc(C(F)(F)F)cc2Cl)CC1 (configuration not stated)	22794*	0	1	-43	-2	-9	3.1
Cc1ccc(CN2CCN(/N=C/c3ccc(N(C)C)cc3)CC2)cc1	5542	/	/	-35	-15	/	/
CCCCCSc1cc(OC)c(CCN)cc1OC	4853	/	/	0	8	11	3.4
COc1ccc(C2c3ccsc3CCN2C(=O)C(C)(C)C)cc1 (configuration not stated)	6571	0	0	-15	1	38	2.6
COc1ccccc1NC(=O)Cn1c(C)cc(=O)c2cccc(OC)c21	4711	17	7	-7	6	-5	13
Cc1ccc(NC(=O)COc2ccccc2[N+](=O)[O-])nc1	3770	6	-1	-28	6	4	4.9
CCCOC(=O)c1ccc(NC(=O)c2nc3nc(C)cc(C)n3n2)cc1	3978	9	4	-31	-1	-62	21
CC1=NC2(CCCc3c2no[n+]3[O-])N(O)C1(C)C (configuration not stated)	5816	15	4	-24	1	0	2.5
CCN(CC)S(=O)(=O)c1ccc2[nH]c(=O)cc(C(=O)Nc3ccccc3N3CCOCC3)c2c1	/	0	-4	-7	/	-2	4.5
CC(=O)Nc1cc(-c2ccc(Cl)cc2)[nH]n1	4362	6	10	-74	5	2	5.1
CCCC1CCC(C(=O)Nn2cnc3ccccc3c2=O)CC1 (configuration not stated)	6107	16	12	-15	-3	11	1.1
Cc1cc2nc3n(c2cc1C)CC1CC(C(=O)NCC2CC2)N(C)C31 (configuration not stated)	3759	4	9	-10	-3	-3	1.6
Cc1ccccc1OCC(=O)Nc1ccc(C(N)=O)cc1	2819	/	/	-10	3	-6	-0.2
CCCc1cc(=O)n2[nH]c(NCc3ccc(Cl)cc3Cl)nc2n1	8532	2	9	-30	-15	-5	11
O=C(Nc1cccc(C(=O)N2CCN(c3ccccc3)CC2)c1)c1ccco1	4487	13	5	-18	-11	12	-2.7
O=C(COC(=O)c1ccc2c(c1)C(=O)N(Cc1ccncc1)C2=O)Nc1ccccc1[N+](=O)[O-]	10431	6	5	-16	1	-5	0.8
CC(C)(C)NC(=O)C(c1ccncc1)N(C(=O)CNC(=O)c1ccco1)c1ccc2c(c1)OCO2 (configuration not stated)	3767	0	5	1	3	-3	1.5
Cc1cc(C(=O)Cn2nc(C(=O)O)c3ccccc3c2=O)c(C)n1-c1ccc(OC(F)F)cc1	4541	3	-6	-38	10	25	-7.5
Cc1cccc(-n2c(O)c(C=NCc3cccnc3)c(=O)[nH]c2=O)c1C	/	-1	-5	-1	-20	-1	1.9
